Screening data as filed in PubChem.
Bead autofluor – compound fluorescence in toxin protease inhibitor counterscreen; compound autofluorescence counterscreen, microsphere flow cytometry; hits give high values; fluorescence intensity (concentration not given with the values); 360,000 tested, 3.1% active; AID 624483;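 active means at least 3 SD above the mean of all compounds, about 16000 in these data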;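 further: 100 nL of 1 mM stock went into each well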
* marks the source's active call; other numbers are inactive results. Not all compounds are listed. The share of hits here may be higher or lower than overall.

SMILES	Bead autofluor
O=c1[nH]cc(F)c(=O)n1C1OC(CO)C(O)C1O (stereo unspecified)	5978
CC(C)(C)n1nnnc1C(c1ccccc1)N1CCN(C(=O)C2CCCO2)CC1 (stereo unspecified)	5555
COCCNC(=O)C1(C)CCCN(C(=O)c2ccc(C(F)(F)F)cc2)C1 (stereo unspecified)	3461
COC(=O)c1ccc(C(=O)OC)c(NC(=O)Cc2cccs2)c1	3830
N#CC12c3ccccc3C(=O)N1Cc1cnnn1-c1ccccc12 (stereo unspecified)	4220
CN(C)Cc1csc(NC(=O)Nc2ccccc2C(C)(C)C)n1	3991
CC1(C(=O)NS(=O)(=O)C2CC2)CCCN(C(=O)c2cccc(OC(F)(F)F)c2)C1 (stereo unspecified)	3645
COc1cc(OC)cc(-c2noc([C@@H]3O[C@H](CO)[C@H](O)[C@H](O)[C@H]3O)n2)c1	4065
COc1cccc(C(NC(C)=O)c2nc(-c3cccc(C#N)c3)cs2)c1 (stereo unspecified)	2920
Cc1ccc(S(=O)(=O)NC(=O)C2(C)CCN2C(=O)CC2CCCC2)nc1 (stereo unspecified)	3732
O=C(C[C@H]1C[C@@H]2c3cc(NC(=O)Nc4ccccc4F)ccc3O[C@@H]2[C@H](CO)O1)NCc1ccccn1	3775
Cn1ccc2c(N3CCCCCCC3)cc3c(c21)C1CCC3O1 (stereo unspecified)	5470
CC(C)(C)OC(=O)N1CCCN(C(c2ccnc3ccccc23)c2nnnn2-c2ccc3c(c2)OCCO3)CC1 (stereo unspecified)	4144
CC(=O)Oc1ccccc1Cn1c(C)c(C(=O)NCc2cccc(Cl)c2)sc1=O	5463
Cc1ccccc1-c1cnc(C(O)c2c(C)cccc2C)[nH]1 (stereo unspecified)	2997
COCCCNC(=O)C[C@@H]1C[C@@]2(C(=O)OC)CCCCC=C2N(Cc2ccc(Cl)cc2Cl)C1=O	5190
CCOC(=O)C(=Cc1ccccc1)C(=O)c1ccccc1	3502
OC[C@@H]1CN(Cc2ccncc2)C[C@H](n2cnc3c(NCc4ccncc4)ncnc32)O1	4036
C=C1C(=O)CC2=C1[C@](Cc1ccc(F)cc1)(C(=O)OC)N(C(=O)c1ccccc1)C2	6508
COCCCNC(=O)c1csc([C@@H]2O[C@H](CO)[C@H](O)[C@H](O)[C@H]2O)n1	3921
COc1cccc(-c2nc3nc(C)cc(C)n3c2Nc2c(C)cccc2C)c1	7787
O=C(OCC(=O)N1CCCCCC1)c1cccc(Cl)c1Cl	4424
O=S1(=O)CC(N2CCN(CC3CC3)CC2)CN1Cc1cn(Cc2ccccc2C(F)(F)F)nn1 (stereo unspecified)	5635
CC1(C(=O)NS(=O)(=O)c2ccccc2)CCN1C(=O)c1cccc2ccccc12 (stereo unspecified)	4203
CC1(C(=O)NS(=O)(=O)c2ccccc2)CCN1C(=O)CC1CC1 (stereo unspecified)	3822
OC(c1cccc(Cl)c1)c1ncc(-c2ccccc2Cl)[nH]1 (stereo unspecified)	4035
Cc1c(NC(=O)c2nn(C(C)C)c(=O)c3ccccc23)c(=O)n(-c2ccccc2)n1C	3457
COCC1OC(OC(C)C(O)c2cnc3nc(N)[nH]c(=O)c3n2)C(O)C(OC)C1O (stereo unspecified)	4752
CC(C)(C)c1ccc(S(=O)(=O)NC(=O)C2(C)CCN2C(=O)Cc2ccccc2Cl)cc1 (stereo unspecified)	3069
COc1ccc(-c2cc3nc(C)cc(N4CCN(C(=O)c5ccco5)CC4)n3n2)cc1	3760
CCC1NC(=O)c2cccnc2-n2c1nc1cc(OC)c(OC)cc1c2=O (stereo unspecified)	3806
Cc1ccc(S(=O)(=O)Nc2ccccc2NS(=O)(=O)c2ccc(C)cc2)cc1	5978
C[C@@H]1CCCCO[C@H](CN(C)C(=O)Nc2ccc(C(F)(F)F)cc2)[C@@H](C)CN([C@H](C)CO)C(=O)c2cc(NC(=O)c3ccncc3)ccc2O1	3502
O=C(Nc1ccc(Oc2ccccc2)nc1)[C@H]1O[C@@H](n2ccc(=O)[nH]c2=O)[C@H](O)[C@@H]1O	5562
Cc1ccccc1S(=O)(=O)NC(=O)C1(C)CCN1C(=O)CC1CCCCC1 (stereo unspecified)	3804
CC1(C(=O)Nc2cccc(Oc3ccccc3)c2)CCN1Cc1ccccc1OC(F)F (stereo unspecified)	3597
CC(=O)Nc1ccc2c3c(ccc([N+](=O)[O-])c13)CC2	3463
CCCS(=O)(=O)NC(=O)C1(C)CCCN(C(=O)c2cc(C)on2)C1 (stereo unspecified)	3969
COC(=O)[C@@]1(Cc2ccc(F)cc2)[C@H]2c3cc(C(=O)N4CCCC4)n(Cc4cc(F)cc5c4OCOC5)c3C[C@H]2CN1C(=O)c1ccccc1	4312
CN1CCN(c2ccc(CNC[C@H]3O[C@@H](n4cnc5c(=O)[nH]c(N)nc54)[C@H](O)[C@@H]3O)c(S(C)(=O)=O)c2)CC1	5948
CC1=C(C(=O)N2CCOCC2)CC(CC(=O)NCC2CCCCC2)C(=O)N1Cc1ccc(C(C)(C)C)cc1 (stereo unspecified)	5825
CCCCNc1nc(NCc2ccccc2)nc2ccccc12	5669
CCCCN1CC(C)(C)[C@H](CC(=O)Nc2ccc(Br)cc2)C1=O	3694
COC(=O)C1=C(c2ccc(OCc3ccccc3)cc2)C[C@@H]2CC[C@H]1N2C	3782
O=C(NC1CCCCC1)C1c2ccccc2OCC(=O)N1Cc1ccccn1 (stereo unspecified)	6091
CC(C)(C)n1c(O)c2n(c1=O)Cc1ccccc1N=C2c1ccccc1	6131
CN(Cc1ccccc1)C(=O)[C@@H]1CCCN1C(=O)[C@@H]1CCCN1C(=O)c1cccs1	6042
NC(Cc1ccc(F)cc1)c1csc(Nc2ccccn2)n1 (stereo unspecified)	3942
CCNC(=S)Nc1ccc2c(c1)c(=O)n(C)n2CC=C(C)C	3520
CC(=O)OC1(C)C=Cc2ccccc2C1=NS(=O)(=O)c1ccccc1 (stereo unspecified)	3390
Cc1ccc(CCC(=O)Nc2ccc(Cl)cc2Cl)o1	3523
O=C(Cc1c[nH]c2ccccc12)N1CCN(S(=O)(=O)c2ccc(F)cc2)CC1	2950
CS(=O)(=O)c1ccc(Nc2nc(C(N)Cc3ccc(F)cc3)cs2)cc1 (stereo unspecified)	3528
CCCCn1nnnc1C(c1cccs1)N1CCN(C/C=C/c2ccccc2)CC1 (stereo unspecified)	6642
Cc1nn(-c2ccccc2)c(-c2ccccc2[N+](=O)[O-])c1CC#N	6131
C[C@@H]1CCCCO[C@H](CN(C)C(=O)Nc2cccc3ccccc23)[C@@H](C)CN([C@H](C)CO)C(=O)c2cc(NC(=O)c3ccccc3)ccc2O1	3746
COC(=O)[C@H](Cc1ccccc1)NC(=O)/C=C/[C@H]1O[C@@H](n2cc(C)c(=O)[nH]c2=O)C[C@@H]1O	6385
CC1=NN(C(N)=S)C(=O)C1N=Nc1ccccc1[N+](=O)[O-] (stereo unspecified)	3774
C[C@@H]1CN([C@@H](C)CO)C(=O)CCCn2nncc2CO[C@@H]1CN(C)C(=O)Nc1ccc(N2CCN(C)CC2)cc1	3742
S=C(NCCc1ccccc1)N1Cc2cc(N3CCCCC3)ccc2-n2nncc2C1	32547*
More records:
SMILES	Bead autofluor
Cc1ccc(-c2cnc(C(O)c3c(C)cccc3C)[nH]2)cc1 (stereo unspecified)	3023
O=C(CC[C@H]1O[C@@H](n2cnc3c(NC(=O)c4ccccc4)ncnc32)[C@H](O)[C@@H]1O)NCCCN1CCOCC1	5456
CC(=O)Nc1ccc(-c2ccnc3c2CC(C(=O)NCc2ccco2)O3)cc1 (stereo unspecified)	3860
O=S1(=O)N[C@H](Cc2ccccc2)COc2cccc(N3CCSCC3)c21	4235
Cc1ccc([C@H]2C[C@H](n3cc(COC(=O)c4ccccc4)nn3)[C@@H](O)CN2C(=O)C2CCCCC2)cc1	3762
O=c1[nH]c(=S)[nH]c2c1C(C1CCCCC1)OC(C1CCCCC1)C2 (stereo unspecified)	5463
Cc1ccc(S(=O)(=O)N2CCC(C(=O)NCCN3CCOCC3)CC2)cc1	4147
O=C(Nc1ccccc1Cl)c1cc(C2CCCCN2C(=O)c2cccs2)on1 (stereo unspecified)	3758
Cc1cccnc1NC(=O)Nc1cccc(F)c1	2927
CC(C)N1CCOC(c2ccc(O)c(O)c2)C1 (stereo unspecified)	5311
CCOC(=O)C1=CCN(S(=O)(=O)c2ccccc2F)C1c1ccc(Cl)c(Cl)c1 (stereo unspecified)	5703
CC1(C(=O)NS(=O)(=O)c2ccc(F)cc2F)CCN1C(=O)CC1CCCCC1 (stereo unspecified)	3830
CC1=C(C(=O)N(C(C)C)C(C)C)CC(CC(=O)NCCc2ccccn2)C(=O)N1Cc1ccccc1 (stereo unspecified)	3477
COc1ccc(NC(=O)C2(C)Cc3c(-c4cccc(C(N)=O)c4)ccnc3O2)cn1 (stereo unspecified)	3255
O=C(COc1ccc(F)c(Cl)c1)NC(=O)NC1CCCC1	3945
CC(C)(C)NC(=O)C1(C)CCC(=O)N1C1CC1 (stereo unspecified)	6042
CN1CCN2c3ccccc3CC(C#N)(C#N)C2C1 (stereo unspecified)	5786
Cc1ccc(C(=O)OCC(=O)N2CCC(C)CC2)cc1S(=O)(=O)N1CCOCC1	3543
CCCCCc1c(Cc2ccccc2)ncn1CCc1ccccc1OC	4641
O=C(CS(=O)(=O)c1ccc(Cl)cc1)Nc1nccs1	3410
O=C(Nc1ccc2c(c1)OCO2)c1cc(C2CCCCN2C(=O)c2ccc3ccccc3c2)on1 (stereo unspecified)	2853
Cc1ccc(S(=O)(=O)NC(=O)C2(C)CCN2C(=O)Cc2cccs2)nc1 (stereo unspecified)	3800
COc1ccc(-c2cnc3c(NC(C)=O)cc(-c4cccc(C(=O)NCCN(C)C)c4)cn23)cc1OC	3074
Cc1ccccc1C(=O)N1Cc2ccccc2-n2nncc2C1	3341
Cc1ccc([C@H]2C[C@H](n3cc(C4CC4)nn3)[C@@H](O)CN2CC2CCCCC2)cc1	3366
O=C1CCc2cc(S(=O)(=O)Nc3cccc(Cl)c3)ccc2N1	2961
Cc1ccc(OC(=O)N(C)C[C@@H]2OCc3cn(nn3)CCCC(=O)N([C@@H](C)CO)C[C@H]2C)cc1	3391
Cc1ccccc1NC(=O)CNC(=O)N1CC(=O)Nc2ccccc21	3068
NC(=O)c1cccc(-c2cccc3nccn23)c1	2890
CSc1ncnc2c1ncn2CCCNCc1ccc2c(c1)OCO2	3805
CC1CCN(C(=O)c2ccc3c(c2)C(=O)c2ccccc2-3)CC1	3015
COc1ccc(NC(=O)c2cc(-c3ccc(F)cc3OC(C)C)n[nH]2)c(OC)c1	2981
O=C(Nc1cccc(C(F)(F)F)c1)c1ccc2sc([C@H]3C[C@H](O)[C@@H](CO)O3)nc2c1	2813
CCOc1ccccc1NC(=O)C1CCCN(S(=O)(=O)c2ccc3c(c2)CCCN3C(C)=O)C1 (stereo unspecified)	3980
CCOC(=O)c1ccc(S(=O)(=O)N2CCC(C(=O)NCC3COc4ccccc4O3)CC2)cc1 (stereo unspecified)	3488
Cc1cccc(-c2noc(-c3csc([C@@H]4C[C@H](O)[C@@H](CO)O4)n3)n2)c1	3616
CC1=C(C(=O)N(C(C)C)C(C)C)CC(CC(=O)NC(c2ccccc2)c2ccccc2)C(=O)N1Cc1ccc(F)cc1 (stereo unspecified)	5441
COCc1cn(CC(=O)c2sc(NC(=O)C(C)(C)C)nc2C)nn1	6138
COC(=O)c1ccc(N2C(c3cc(OC)cc(OC)c3)=Cc3ccc(-c4cnc(OC)nc4)cc3C2CC(=O)C2CC2)cc1 (stereo unspecified)	4562
Cc1ccc([C@H]2N[C@]3(CCCN(Cc4cccn4C)C3=O)[C@H]3C(=O)N(C)C(=O)[C@@H]23)cc1	2934
Cc1ccccc1Nc1nc(Cl)nc(NC(C)(C)C)n1	3539
Cc1ccc(S(=O)(=O)N2C[C@H]3[C@H]4C(=O)N(c5ccccc5)C(=O)[C@H]4C[C@H](OC(=O)Nc4c(C)noc4C)[C@@]3(O)C2)cc1	3476
O=C(OCc1cn([C@@H]2CN(Cc3cccs3)[C@@H](c3ccccc3)C[C@H]2O)nn1)c1ccccc1	2898
CC1CCC(NC(=O)C(NS(=O)(=O)c2ccc(Br)cc2)C(C)C)CC1 (stereo unspecified)	3538
CC(=O)N1CCOc2ccc(S(=O)(=O)N3CCC(C(=O)NCc4ccc(Cl)cc4)CC3)cc21	2952
Cc1ccccc1-c1cc2nc(NCCN3CCCC3)n(C)c(=O)c2s1	3710
O=C(CN1CCN(C(=O)CNC(=O)c2ccc(N3CCCC3=O)cc2)CC1)Nc1cccc(F)c1	2876
CCc1cc(=O)oc2cc(OC(C)C(=O)N3CC[C@@]4(O)CCCC[C@H]4C3)ccc12 (stereo partly specified)	4834
CCCCC(=O)N(C)c1c(C)nc2ccc(C(=O)N3CCN(S(=O)(=O)CC)CC3)cn12	3734
Cc1ccccc1NS(=O)(=O)c1ccc(C(=O)NCc2ccccc2CN2CCCC2)cc1	5218

Compounds from the list above that have a Cl atom (13):
SMILES	Bead autofluor
CC(=O)Oc1ccccc1Cn1c(C)c(C(=O)NCc2cccc(Cl)c2)sc1=O	5463
COCCCNC(=O)C[C@@H]1C[C@@]2(C(=O)OC)CCCCC=C2N(Cc2ccc(Cl)cc2Cl)C1=O	5190
O=C(OCC(=O)N1CCCCCC1)c1cccc(Cl)c1Cl	4424
OC(c1cccc(Cl)c1)c1ncc(-c2ccccc2Cl)[nH]1 (stereo unspecified)	4035
CC(C)(C)c1ccc(S(=O)(=O)NC(=O)C2(C)CCN2C(=O)Cc2ccccc2Cl)cc1 (stereo unspecified)	3069
Cc1ccc(CCC(=O)Nc2ccc(Cl)cc2Cl)o1	3523
O=C(Nc1ccccc1Cl)c1cc(C2CCCCN2C(=O)c2cccs2)on1 (stereo unspecified)	3758
CCOC(=O)C1=CCN(S(=O)(=O)c2ccccc2F)C1c1ccc(Cl)c(Cl)c1 (stereo unspecified)	5703
O=C(COc1ccc(F)c(Cl)c1)NC(=O)NC1CCCC1	3945
O=C(CS(=O)(=O)c1ccc(Cl)cc1)Nc1nccs1	3410
O=C1CCc2cc(S(=O)(=O)Nc3cccc(Cl)c3)ccc2N1	2961
Cc1ccccc1Nc1nc(Cl)nc(NC(C)(C)C)n1	3539
CC(=O)N1CCOc2ccc(S(=O)(=O)N3CCC(C(=O)NCc4ccc(Cl)cc4)CC3)cc21	2952
